KCNQ1 inh = inhibitors of human KCNQ1 potassium channel. B-score at 10 µM. hit rate 1.3% among 310,000. P51787. CHO-K1 KCNQ1, FluxOR thallium flux fluorescence; active compounds read high;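 active = compounds whose thallium flux B-score, printed positive for inhibition, exceeds three library SD while starting fluorescence stays within three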;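 note: channel opened by potassium depolarization with thallium stimulus after 20 min compound exposure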
Target sequence (P51787 whole entry, looked up): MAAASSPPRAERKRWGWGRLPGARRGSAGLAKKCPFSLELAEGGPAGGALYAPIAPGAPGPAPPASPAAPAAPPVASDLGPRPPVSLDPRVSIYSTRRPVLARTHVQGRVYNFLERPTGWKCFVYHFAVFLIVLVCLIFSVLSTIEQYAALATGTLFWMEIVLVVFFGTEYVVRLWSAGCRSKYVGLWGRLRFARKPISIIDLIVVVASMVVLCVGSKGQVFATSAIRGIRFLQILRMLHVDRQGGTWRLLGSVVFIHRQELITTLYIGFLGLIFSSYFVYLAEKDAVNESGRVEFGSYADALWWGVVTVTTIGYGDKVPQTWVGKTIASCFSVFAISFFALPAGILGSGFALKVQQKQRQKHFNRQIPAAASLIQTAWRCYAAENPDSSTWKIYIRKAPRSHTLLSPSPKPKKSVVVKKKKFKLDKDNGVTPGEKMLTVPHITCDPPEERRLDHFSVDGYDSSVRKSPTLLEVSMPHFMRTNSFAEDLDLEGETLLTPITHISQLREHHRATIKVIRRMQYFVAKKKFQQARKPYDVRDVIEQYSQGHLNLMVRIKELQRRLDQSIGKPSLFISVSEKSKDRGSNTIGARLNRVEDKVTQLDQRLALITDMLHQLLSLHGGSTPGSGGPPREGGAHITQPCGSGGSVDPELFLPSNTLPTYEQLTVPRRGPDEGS
TRPC4 act = TRPC4 (mouse) channel activation; hit rate 0.49% among 310,000; Q9QUQ5; AID 2237; HEK293 TRPC4beta/mu-opioid, Fluo4 calcium fluorescence; active compounds read high; B-score at 10 µM;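 active = B-score above 5 SD of library B-scores, and initial fluorescence ratio not above library mean plus 5 SD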;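 note: positive B-score marks a calcium rise read as TRPC4 activation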
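Assay system: HEK293 stable line with TRPC4beta plus mu-opioid receptor; schedule: 45 min room-temperature Fluo4 loading, 110 s read; technique: kinetic Fluo4 calcium fluorescence; evaluation: integrated baseline-normalised fluorescence ratio, converted to per-well B score; controls: buffer (low) and maximal DAMGO (high)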
ANO1 activ = activators or potentiators of mouse TMEM16A chloride channel. hit rate 0.3% among 340,000. B-score at 10 µM. HEK293 TMEM16A/YFP-H148Q/I152L, iodide quench fluorescence; active compounds read low. Q8BHY3. AID 623877;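 active = fluorescence-ratio B-score plate-corrected deviation score at least 3 library SD below zero, with starting fluorescence score within 5 deviations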;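 note: channel opened by trigger with iodide after compound preincubation; score built on the fluorescence ratio of max minus min over baseline; more negative score means more quench and so TMEM16A activation or potentiation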
Dyrk1A ADPGlo = blocks rat Dyrk1A kinase activity; inhibition, % at 12.5 µM; Q63470; ADP-Glo luminescence, NFATc1 peptide; hit rate 0.43% among 310,000; in the data active = inhibition above about 50%;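 note: plate controls were vehicle with enzyme for no effect and no enzyme for full effect; many of its hits are not listed in these tables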
KCNQ1 act = potentiates or activates the human KCNQ1 potassium channel; P51787; CHO-K1 KCNQ1, thallium flux FluxOR fluorescence; active compounds read high; B-score at 10 µM; hit rate 0.35% among 310,000; AID 2648;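 active = fluorescence ratio B-score, a plate-corrected score, at least three library SD, with initial intensity B-score within 5 SD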
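Test system: CHO-K1 cells stably expressing KCNQ1 / Medium: assay buffer / Also added: depolarizing K+/Tl+ stimulus, K2SO4 and Tl2SO4 each 12.5 mM in 5x stock / Incubation: 90 min dye loading and 20 min compound exposure, both at room temperature / Signal: thallium influx via FluxOR fluorescence, kinetic imaging / Evaluation: B score of baseline-normalized fluorescence ratio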
TMEM16A inh = mouse TMEM16A channel inhibition, primary screen; Q8BHY3; HEK293 TMEM16A/YFP iodide influx fluorescence, ionomycin; normalized B-score (activity score, 25-100; higher = stronger inhibition) at 10 µM; hit rate 1.2% among 310,000; AID 588511;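 active = ratio plate-corrected score three or more library SD toward inhibition, starting fluorescence score within five deviations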;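 note: score derived from kinetic fluorescence span divided by baseline fluorescence per well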
TRPC4 PAM = allosteric potentiators of mouse TRPC4 channel. HEK293 TRPC4beta/mu-opioid, DAMGO EC20, Fluo-4 Ca2+ flux; active compounds read high. AID 2227. Q9QUQ5. hit rate 0.42% among 310,000. B-score at 10 µM;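 active = B-score of calcium response area above 5 SD of library B-scores, with initial fluorescence ratio within 5 SD of library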;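 note: B-score of integrated fluorescence ratio over time as area under calcium response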
hERG rescue = compounds protecting human hERG from proarrhythmic drug block. Q12809. CHO-hERG, FluxOR thallium flux, dofetilide IC70 present. activation (rescue from dofetilide block), less the hit threshold, % at 10 µM. hit rate 0.51% among 310,000;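 active = activation above the mean of controls blocked by dofetilide plus 5 SD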;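 note: thallium influx through hERG after potassium depolarization seen as dye fluorescence rise; in these data hits start at about 4.7%; inactives centre near -7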
KCNK3 inh = human KCNK3 channel inhibition, primary screen | O14649 | CHO-KCNK3 thallium flux, FluxOR fluorescence; active compounds read low | B-score at 10 µM | hit rate 0.84% among 340,000 | AID 602410;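 active = B-score under library mean minus 4 SD, starting fluorescence ratio at most library mean plus 5 SD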;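 note: more negative B-score means stronger inhibition of thallium flux through KCNK3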
HDAC3 inh = inhibitors of human histone deacetylase 3 | O15379 | recombinant HDAC3, fluorogenic peptide/trypsin coupled, fluorescence | inhibition, % at 8.3 µM | hit rate 0.15% among 320,000; in the data active = inhibition above about 26%, passing the limit was not always enough
Starred values were filed as active, the others as inactive; i = inactive; / = no result given.

Order of values – hERG rescue, KCNQ1 act, KCNK3 inh, TRPC4 act, Dyrk1A ADPGlo, TRPC4 PAM, HDAC3 inh, KCNQ1 inh, TMEM16A inh, ANO1 activ
- Cc1ccc(N2CCN(S(=O)(=O)c3ccc(F)c(C)c3)CC2)c(C)c1
→ -12, i, i, i, -2, i, -3, i, i, -11*
- COc1ccc(CN(C)CC(=O)Nc2ccccc2-c2ccccc2)c(OC)c1
→ -4, i, i, i, 0, i, /, i, i, i
- COc1cccc(-c2csc(N3CCN(C(=O)Nc4ccc(Cl)cc4)CC3)n2)c1
→ -22, i, i, i, -4, i, /, 12*, i, i
- COc1ccc(C(=O)CSc2nnc(CCc3ccccc3)n2-c2ccccc2)cc1
→ -11, i, i, i, -4, i, 14, i, i, i
- C=CCc1ccccc1OCC(O)CN1CCN(c2ccccc2F)CC1 (stereo unspecified)
→ -11, i, i, i, 3, i, 14, i, i, i
- Cc1ccc(C(=O)CSc2ccc(-c3ccccc3)nn2)cc1
→ -7, i, i, i, -4, i, 2, i, i, i
- O=C(c1ccc2c3c(cccc13)CC2)C1CCCN(C(=O)c2cccnc2)C1 (stereo unspecified)
→ -10, i, i, i, -3, i, -2, i, i, i
- Cc1ccc(NC2=C(Cl)C(=O)OC2OC(=O)c2ccc(C)cc2)cc1 (stereo unspecified)
→ -6, 17*, i, i, 3, i, 7, i, i, i
- CCOc1ccc(OCc2ccc(C(=O)N3CCc4ccccc4C3)o2)cc1
→ -11, i, i, i, 5, i, 0, i, i, i
- CC(C)c1ccc(/C=C2\C(=O)N(CCN3CCOCC3)C(=S)N2C)cc1
→ -10, i, i, i, -2, i, 5, i, i, i
- CCCC1(c2ccccc2)NC(=O)N(CC(=O)Nc2cc(C)ccc2OC)C1=O (stereo unspecified)
→ -10, i, i, i, -3, i, 5, i, i, i
- CCOC(=O)Cc1c(C)nc2c(-c3cccc(Br)c3)cnn2c1C
→ -9, i, i, i, -6, i, 10, i, i, i
- CCOC(=O)c1c(C)nc2sc(C(=O)Nc3ccc(C(C)=O)cc3)c(N)c2c1-c1ccc(OC)cc1
→ -8, i, i, i, -3, i, 3, i, i, i
- O=C(Nc1ccc(Cl)c(S(=O)(=O)Nc2ccccc2Cl)c1)c1cccs1
→ -9, i, i, i, -5, i, 1, i, 25*, i
- COc1ccccc1/C=C(/C(=O)OCC(=O)Nc1cc(C)ccc1C)c1ccccc1
→ -8, i, i, i, -2, i, 5, i, i, i
- O=C(O)c1ccc(Cl)c(S(=O)(=O)N(Cc2ccccc2)c2ccccc2Cl)c1
→ -13, i, i, i, 0, i, -1, i, i, i
- COc1ccccc1-c1nc2cc3ccccc3cc2nc1-c1ccccc1OC
→ -12, i, i, i, 1, i, 4, i, i, i
- COc1cc(/C=C2/C(=N)N3C(=NC2=O)SN=C3S(C)(=O)=O)ccc1OS(=O)(=O)c1ccc(C)cc1
→ -23, i, i, i, 15, i, 9, i, i, i
- COc1cc(/C=C2\SC(=S)N(CCC(=O)NC3CCCC3)C2=O)cc(OC)c1OC
→ -13, i, i, i, -9, i, 7, i, i, i
- CCC(C)(C)n1nnnc1C(c1cccc(C#N)c1)N1CCN(c2cc(C)ccc2C)CC1 (stereo unspecified)
→ -4, i, i, i, -4, i, 5, i, i, i
- CCn1c(=O)cc(OCC(=O)NC2CC2)c2ccccc21
→ -11, i, i, i, -5, i, -3, i, i, i
- CCOC(=O)[C@@H]1[C@H]2COc3ccccc3[C@@H]2N2C(=O)N(c3cccc(F)c3)C(=O)[C@@]12C
→ /, /, i, /, 4, /, 1, /, /, i
- CCC(C(=O)Nc1ccccc1OC)n1c(C(=O)OC)cc2ccsc21 (stereo unspecified)
→ -7, i, i, i, -2, 15*, 4, i, i, i
- CCOc1cc(CNc2ccc(OC)cc2)cc(Br)c1OCC(=O)NC(C)(C)C
→ -2, i, i, i, -4, i, 11, i, i, i
- CC(C)Oc1cccc(C(=O)C2CCCN(Cc3cccn3-c3cccnc3)C2)c1 (stereo unspecified)
→ -12, i, i, i, 18, i, /, i, i, i
- CCOC(=O)[C@@H]1[C@H]2COc3ccc(Br)cc3[C@H]2N2C(=O)N(c3ccc(C)cc3)C(=O)[C@@]12C
→ /, /, i, /, -2, /, 10, /, /, i
- COC1=CC(=Cc2c(N)n3nc(CC(=O)N4CCCCC4)sc3nc2=O)C=C(OC)C1=O
→ -8, i, i, i, 3, i, -3, 10*, i, i
- O=C(O)c1cccc(S(=O)(=O)Nc2cccc(S(=O)(=O)N3CCCCCC3)c2)c1
→ -14, i, i, i, -3, i, 11, i, i, i
- CN(Cc1cccc(F)c1)C(=O)c1cccc(S(=O)(=O)N2CCN(Cc3ccccc3)CC2)c1
→ -11, i, i, i, -4, i, 5, i, i, i
- CCc1ccc(NC(=O)CO/N=C(\C)c2cc3ccccc3o2)cc1
→ -12, i, i, i, -4, i, 4, i, 100*, i
- COc1ccc(C(=S)N2CCN(c3cccc(Cl)c3)CC2)cc1
→ -12, i, i, i, 9, i, 3, i, i, i

Look-ups from the entries so far:
Result of CCCC1(c2ccccc2)NC(=O)N(CC(=O)Nc2cc(C)ccc2OC)C1=O (stereo unspecified) in HDAC3 inh: 5
Result of Cc1ccc(N2CCN(S(=O)(=O)c3ccc(F)c(C)c3)CC2)c(C)c1 in ANO1 activ: -11*

No new results follow: 13 of the compounds above.
Order of values – hERG rescue, KCNQ1 act, KCNK3 inh, TRPC4 act, Dyrk1A ADPGlo, TRPC4 PAM, HDAC3 inh, KCNQ1 inh, TMEM16A inh, ANO1 activ
- COc1cc(/C=C2\SC(=S)N(CCC(=O)NC3CCCC3)C2=O)cc(OC)c1OC
→ -13, i, i, i, -9, i, 7, i, i, i
- CCC(C)(C)n1nnnc1C(c1cccc(C#N)c1)N1CCN(c2cc(C)ccc2C)CC1 (stereo unspecified)
→ -4, i, i, i, -4, i, 5, i, i, i
- CCn1c(=O)cc(OCC(=O)NC2CC2)c2ccccc21
→ -11, i, i, i, -5, i, -3, i, i, i
- CCOC(=O)[C@@H]1[C@H]2COc3ccccc3[C@@H]2N2C(=O)N(c3cccc(F)c3)C(=O)[C@@]12C
→ /, /, i, /, 4, /, 1, /, /, i
- CCC(C(=O)Nc1ccccc1OC)n1c(C(=O)OC)cc2ccsc21 (stereo unspecified)
→ -7, i, i, i, -2, 15*, 4, i, i, i
- CCOc1cc(CNc2ccc(OC)cc2)cc(Br)c1OCC(=O)NC(C)(C)C
→ -2, i, i, i, -4, i, 11, i, i, i
- CC(C)Oc1cccc(C(=O)C2CCCN(Cc3cccn3-c3cccnc3)C2)c1 (stereo unspecified)
→ -12, i, i, i, 18, i, /, i, i, i
- CCOC(=O)[C@@H]1[C@H]2COc3ccc(Br)cc3[C@H]2N2C(=O)N(c3ccc(C)cc3)C(=O)[C@@]12C
→ /, /, i, /, -2, /, 10, /, /, i
- COC1=CC(=Cc2c(N)n3nc(CC(=O)N4CCCCC4)sc3nc2=O)C=C(OC)C1=O
→ -8, i, i, i, 3, i, -3, 10*, i, i
- O=C(O)c1cccc(S(=O)(=O)Nc2cccc(S(=O)(=O)N3CCCCCC3)c2)c1
→ -14, i, i, i, -3, i, 11, i, i, i
- CN(Cc1cccc(F)c1)C(=O)c1cccc(S(=O)(=O)N2CCN(Cc3ccccc3)CC2)c1
→ -11, i, i, i, -4, i, 5, i, i, i
- CCc1ccc(NC(=O)CO/N=C(\C)c2cc3ccccc3o2)cc1
→ -12, i, i, i, -4, i, 4, i, 100*, i
- COc1ccc(C(=S)N2CCN(c3cccc(Cl)c3)CC2)cc1
→ -12, i, i, i, 9, i, 3, i, i, i

This is a subset; count on the stated rates, not on these rows.
